Screening data (PubChem BioAssay)
Proteasome disasm = blocks ATP-dependent breakdown of the yeast 26S proteasome | anti-FLAG beads, GFP-proteasome disassembly, flow cytometry | inhibition of disassembly, % (test concentration not listed) | 0.2% of 24,000 active | AID 751;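 active = above 40%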;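 also: plate controls were ATP control with full disassembly for no effect and ATP-gamma-S intact proteasomes for full effect; higher percent means more bead fluorescence retained so stronger block of disassembly; stock transfer was 100 nL into about 10 µL; wells with too few beads may also be inconclusive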
VCAM-1 up = boosters of cytokine-driven VCAM-1 levels – cell-based, plate reader, pooled HUVEC, TNFa stimulus (AID 455); HUVEC TNFa-induced VCAM-1 immunofluorescence, plate reader; numbers were filed only for top-ranked candidate wells; augmentation, % at 5 µM; 0.2% of 10,000 active;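 active = a compound raising TNF-alpha-driven VCAM-1 surface staining, with its hit status upheld on visual or statistical review; inactive = the rest, including hits rejected on review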;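 also: 0% = TNFa with vehicle and 100% = strongest image-checked hit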
* = called active by the depositor; i = inactive; nt = no result given. Some of the compounds tested; rates above refer to the full screens.

SMILES	Proteasome disasm	VCAM-1 up
CCC(=O)N1CCc2cc(S(=O)(=O)NCCC(=O)N3CCN(Cc4ccccc4)CC3)ccc21	0.1	nt
Cc1noc(/C=C/N(C)C)c1S(=O)(=O)N1CCN(c2ccccc2)CC1	-0.6	nt
CCCc1cc(=O)n2[nH]c(-c3ccc(Br)cc3)cc2n1	3.5	i
CCCN1C2=NCCN2c2cc(C)c(C)cc21	0.7	nt
Cc1ccc(-n2c(O)cnc2Nc2nc(C)cc(C)n2)cc1	1.9	nt
O=c1cc(CSc2nnc(COc3ccc(Cl)cc3)o2)c2ccccc2[nH]1	1.3	i
Cc1cccc(NC(=O)CN(C)S(=O)(=O)c2cccc3cccnc23)c1	-0.5	nt
CCOCC(=O)Nc1cc(-c2cn3cccnc3n2)ccc1C	-1.7	nt
Cc1cc2c(c(=O)n1CCc1ccccc1)C(C(C)C)C(C#N)=C(N)O2 (stereo unspecified)	-2.5	i
CC1C(=O)C(C)C(c2cccs2)NC1c1cccs1 (stereo unspecified)	0.3	i
COc1nc2c(s1)C(=O)NCCC2	1.3	nt
CC(=O)NC(CCS(C)(=O)=O)C(=O)Nc1ccc2c(c1)OCCO2 (stereo unspecified)	-2.0	nt
Cc1cc(N2C(=O)CC(N3CCN(c4ccc(C(=O)c5cccs5)cc4)CC3)C2=O)no1 (stereo unspecified)	-0.2	i
CCOC(=O)c1cccc(NC(=O)CCn2cccc2)c1	0.2	nt
O=c1oc(-c2ccco2)nc2ccccc12	-0.7	i
COc1ccc2cc(CN(CCO)C(=O)c3ccccc3F)c(=O)[nH]c2c1	1.7	i
CCn1cc(C(=O)O)c(=O)c2cc(F)c(N3CCNCC3)cc21	-1.4	i
C=CCn1c(CCNC(=O)C(C)(C)C)nc2ccccc21	-1.0	nt
O=C(O)c1cc(-c2ccco2)nc2ccc(Br)cc12	-0.1	nt
Cc1cn([C@H]2C[C@H](N=[N+]=[N-])[C@@H](CO)O2)c(=O)[nH]c1=O	0.5	i
COCCNc1nc(SCC(=O)N2CCN(c3ccccc3)CC2)nc2ccccc12	-0.7	i
CC(C)COC(=O)N(C)c1ccc(C(O)(C(F)(F)F)C(F)(F)F)cc1	-0.6	i
COc1ccc(OC)c(NC(=O)CSc2ncccc2C(=O)O)c1	-2.6	i
CC(NC(=O)c1ccccc1NC(=O)c1ccco1)c1ccccc1 (stereo unspecified)	1.1	nt
CCCS(=O)(=O)N1CCCC(C(=O)NCCc2ccc(Cl)cc2)C1 (stereo unspecified)	-0.3	nt
O=C(CCS(=O)(=O)c1ccc(Br)cc1)N1CCN(Cc2ccccc2)CC1	-1.9	nt
CC1(C)OC(=O)C(=CNc2cccc(O)c2)C(=O)O1	0.3	nt
CCc1ccc(C2CC(c3ccccc3)n3ncnc3N2)cc1 (stereo unspecified)	0.7	i
CC(=O)c1cc(-c2ccc(F)cc2)n(CCC(=O)Nc2cc(C)[nH]n2)c1C	0.4	i
Cc1cc(Nc2cc(F)ccc2C)n2ncnc2n1	-0.4	nt

An excerpt of these results, bar-delimited:
structure | Proteasome disasm | VCAM-1 up
CC(=O)NC(CCS(C)(=O)=O)C(=O)Nc1ccc2c(c1)OCCO2 (stereo unspecified) | -2.0 | nt
Cc1cc(N2C(=O)CC(N3CCN(c4ccc(C(=O)c5cccs5)cc4)CC3)C2=O)no1 (stereo unspecified) | -0.2 | i
CCOC(=O)c1cccc(NC(=O)CCn2cccc2)c1 | 0.2 | nt
O=c1oc(-c2ccco2)nc2ccccc12 | -0.7 | i

(further entries)
SMILES	Proteasome disasm	VCAM-1 up
CC(CN1c2ccccc2Sc2ccccc21)N(C)C (stereo unspecified)	-1.4	i
COc1ccc(C(=O)N2CCC(C(=O)NCc3ccccn3)CC2)cc1	0.5	nt
CCOC(=O)N1CCN(Cc2ccccc2F)CC1	-1.2	i
CCOc1ccc2nc(NC(=O)CSc3nnnn3C3CCCCC3)sc2c1	0.1	i
CCCn1c(SCC(=O)N2CCN(c3ccccc3)CC2)nc2ccccc2c1=O	0.0	i
COc1ccc(Cc2nc3ccc(S(N)(=O)=O)cc3[nH]2)cc1OC	-2.0	i
Cc1c(C(=O)Nc2ccc(F)cc2)oc2ccc(S(=O)(=O)N3CCCC3)cc12	1.3	nt
O=C(Cn1c(=O)n(Cc2ccc3c(c2)OCO3)c(=O)c2ccccc21)N1CCCc2ccccc21	1.3	i
COCCNC(=O)C(c1ccc(C)o1)N(Cc1ccc(F)cc1)C(=O)Cn1nnc2ccccc21 (stereo unspecified)	-0.9	i
CCOC(=O)c1[nH]c2ccccc2c1NC(=O)C(C)(C)C	-0.5	i
Cc1cc(C)n2c(SCC#N)nnc2n1	-1.5	nt
Cc1ccc2[nH]c3c(c2c1)CCC3=O	-0.3	nt
COc1ccc(OC)c(C2C(C#N)=C(N)Oc3cc(C)[nH]c(=O)c32)c1 (stereo unspecified)	-0.2	i
COc1ccc2c(-c3cccnc3)cc(=O)[nH]c2c1	-1.7	i
Cc1ccc(N2C(N)=NC(N)=NC23CCCC3)c(C)c1	-0.9	i
COc1ccc(NC(=O)CSc2nc3ccccc3c(=O)n2CCC(=O)N2CCCCC2)cc1	-0.8	nt
COc1ccc(-c2nnc(SCC#N)o2)cc1	-2.4	i
CCc1nnc(NC(=O)CSc2nnc(-c3cc4ccccc4cc3O)n2CC)s1	0.8	i
COc1ccc(NC(=O)CCc2nc(-c3ccc(C)cc3)no2)cc1Cl	-2.0	nt
CCOc1ccc(NS(=O)(=O)c2ccc3c(c2)CCN3C(=O)CCC(=O)O)cc1	0.1	nt
COC(=O)c1[nH]c2ccc(F)cc2c1NS(=O)(=O)c1ccc(OC)cc1OC	2.9	i
CCC(=O)NC(C)C(c1cccs1)N1CCOCC1 (stereo unspecified)	1.3	nt
CCc1nnc(NC(=O)C2CCN(c3nccc(C)n3)CC2)s1	3.6	i
CC(=O)Nc1cccc(OCC(O)Cn2cnc3ccccc32)c1 (stereo unspecified)	-0.4	i
Cc1ccc(S(=O)(=O)N2CCN(C(=O)CN3CCOCC3)C2C(C)C)cc1 (stereo unspecified)	-3.4	i
CCOC(=O)c1ccc(N2CSC3=C(C#N)C(c4cccs4)CC(=O)N3C2)cc1 (stereo unspecified)	-1.0	nt
S=C(N=Nc1ccccc1)NNc1ccccc1	-0.8	i
CC(C)c1cc(C(=O)Nc2cccc(Cl)c2)no1	1.1	nt
O=c1cc(O)nc(SCc2ccccc2Cl)[nH]1	-0.7	nt
O=C(c1cc(-c2cccs2)on1)N1CCN(c2ccc(F)cc2)CC1	0.3	nt
COc1ccc(CNCC(=O)Nc2cc(C)nn2-c2nc(C)cc(C)n2)cc1OC	1.6	i
COc1cccc(Nc2nc(=O)[nH]nc2C)c1	-1.0	i
COc1ccc(N2CCC(CNC(=O)Nc3ccc(OC)cc3OC)C2)cc1 (stereo unspecified)	-1.5	nt
Cc1ccc(N2CCN(S(=O)(=O)c3ccc(F)cc3)CC2)c(C)c1	-0.6	nt
Cc1c(C(=O)N2CCN(c3ccccc3)CC2)sc2ncnc(N3CCN(c4ccccc4)CC3)c12	0.7	i
CCN(CCNS(=O)(=O)c1ccc2[nH]c(=O)sc2c1)c1ccccc1	0.2	nt
Cc1c(NC(=O)C2CCCCN2S(=O)(=O)c2ccc(Cl)cc2)c(=O)n(-c2ccccc2)n1C (stereo unspecified)	-0.2	i
CCn1c(=O)cc(SCC(=O)N2CCC(C)CC2)c2ccccc21	1.1	nt
O=C(c1cc2c(=O)n3ccccc3nc2s1)N1CCOCC1	-0.8	nt
O=C(NCc1ccccn1)C1CCN(S(=O)(=O)c2cnc[nH]2)CC1	1.1	nt
COc1cc(C2C(C#N)=C(N)OC3=C2C(=O)CCC3)cc(OC)c1OC(=O)N1CCOCC1 (stereo unspecified)	0.0	nt
Cc1ccc(Cn2nnc3c(=O)n(CC(=O)N4CCN(c5ccccc5)CC4)cnc32)cc1	0.9	nt
Cc1c(C#N)c2ncnc(-c3ccccc3)c2n1-c1ccccc1	-1.5	i
COC(=O)c1ccc(NC(=O)CCn2c(=O)oc3ccccc32)cc1	-0.6	nt
Cc1cccc(C)c1NC(=O)c1cc(S(=O)(=O)N2CCOCC2)ccc1F	-0.1	i
CCOC(=O)C(NC(=O)c1ccc(F)cc1)(Nc1nnc(C)s1)C(F)(F)F (stereo unspecified)	-1.6	nt
CC(C)CNc1nc(Oc2ccc(=O)n(-c3ccccc3)n2)nc(N2CCOCC2)n1	-1.5	nt
Cc1ccc(-c2nc(CS(=O)CC(=O)NCCC(C)C)c(C)o2)cc1 (stereo unspecified)	-0.4	nt
NC(N)=NC(=O)c1nc(Cl)c(N)nc1N	0.9	i
Cc1cccc(-c2nnc(SCC#N)n2-c2cccc(Cl)c2)c1	-2.2	i
(more compounds)
SMILES	Proteasome disasm	VCAM-1 up
O=C(OCC(=O)c1cccs1)C1=COCCO1	-1.0	i
N#Cc1c(-c2ccccc2)nc(N2CCOCC2)[nH]c1=O	0.5	nt
CC(C)CCn1c(=S)[nH]c2ncccc2c1=O	-2.0	nt
CC(C)NC(=O)C1CCCN(S(C)(=O)=O)C1 (stereo unspecified)	1.5	nt
Cc1ncc(CO)c2c1OC(C)(C)OC2	-1.5	i
Cc1cc(NC(=O)CSc2nc(C3CC3)nc3sc4c(c23)CCC(C)C4)no1 (stereo unspecified)	3.2	i
CSc1nnc(Cn2c(=O)sc3ccccc32)n1-c1cccc(Cl)c1	-0.3	nt
Cc1c(C(=O)NCc2cccnc2)oc2ccc(S(=O)(=O)N3CCCCCC3)cc12	0.9	nt
COc1ccccc1N(CN1CCCC1=O)C(=O)c1ccccc1F	4.3	nt
O=C(Nc1nccs1)C1CCN(S(=O)(=O)c2cccnc2)CC1	-1.5	nt

Shown with two lines to a compound: part of the list above.
Sequence of screens – Proteasome disasm	VCAM-1 up
- CSc1nnc(Cn2c(=O)sc3ccccc32)n1-c1cccc(Cl)c1
  -0.3	nt
- COc1ccccc1N(CN1CCCC1=O)C(=O)c1ccccc1F
  4.3	nt
- CC(C)NC(=O)C1CCCN(S(C)(=O)=O)C1 (stereo unspecified)
  1.5	nt
- O=C(Nc1nccs1)C1CCN(S(=O)(=O)c2cccnc2)CC1
  -1.5	nt
- Cc1cc(NC(=O)CSc2nc(C3CC3)nc3sc4c(c23)CCC(C)C4)no1 (stereo unspecified)
  3.2	i

Remaining list, next part.
SMILES	Proteasome disasm	VCAM-1 up
O=C(c1cc2ccccc2cc1OCC(O)CN1CCCCC1)N1CCCCC1 (stereo unspecified)	0.1	nt
O=C(c1ccccc1)N1CCN(CC2CC=CCC2)CC1 (stereo unspecified)	0.3	i
COc1cc2c(C(=O)NCc3ccc4c(c3)OCO4)cn(CC(C)C)c(=O)c2cc1OC	0.6	nt
CCOc1ccc(Cn2c(SCCCCC#N)nc3c2c(=O)n(C)c(=O)n3C)cc1OCC	1.3	nt
COc1ccc(C(CC(=O)O)NC(=O)COc2ccccc2OC)cc1OC (stereo unspecified)	-0.7	nt
COCCn1nnnc1CN(CCCN1CCOCC1)Cc1cc2c(C)ccc(C)c2[nH]c1=O	2.5	i
CC(=O)Nc1ccc(S(=O)(=O)N2CCN(C(=O)CCC3CCCC3)CC2)cc1	0.1	i
CC1Cc2ccccc2N1C(=O)CCN1C(=O)C2C3C=CC(C3)C2C1=O (stereo unspecified)	4.8	nt
COc1ccc(-c2nnc3sc(-c4c(OC)cccc4OC)nn23)cc1	0.1	i
CC(C(=O)O)N1C(=O)CSc2ncccc21 (stereo unspecified)	-0.8	nt
O=C(Nc1nnc(SCC(=O)N2CCCCC2)s1)C1CCCCC1	-0.3	i
Cc1cccc(-n2ncc3c(Nc4c(C)n(C)n(-c5ccccc5)c4=O)ncnc32)c1	-2.3	nt
CCN(CCCNC(=O)CN1C(=O)COc2ccccc21)c1ccccc1	-0.1	nt
N#CCCN1CCN(S(=O)(=O)c2ccc(S(=O)(=O)NCc3ccccc3)cc2)CC1	0.0	nt
Cc1cc(C)n2nc(SCc3cc(=O)n4c(C)cccc4n3)nc2n1	0.5	nt
Nc1ccccc1S(=O)(=O)c1ccccc1N	0.7	nt
c1ccc(-c2nc3ccccc3nc2-c2ccccn2)nc1	0.8	i
CCN1CCCC1CNC(=O)c1ccc2c(=O)n(CCOC)c(=O)[nH]c2c1 (stereo unspecified)	-0.8	nt
O=C(NCCN1CCN(c2ccccc2)CC1)C1CCCN(S(=O)(=O)c2cnc[nH]2)C1 (stereo unspecified)	-1.1	nt
FC(F)(F)c1cc(-c2cccs2)nc(NCc2ccco2)n1	1.1	nt
CCOC(=O)c1[nH]c(C)c(C(=O)Nc2ccccc2F)c1C	1.8	i
COc1cccc(-c2nnc3sc(C4CCCCC4)nn23)c1	-1.6	i
CC1CCC(C(=O)NC(C(=O)NCCN2CCC(C)CC2)C(C)C)CC1 (stereo unspecified)	0.4	i
O=C(C1CCCO1)N1CCc2ccccc21 (stereo unspecified)	4.3	i
CCOC(=O)N1CCN(C(=O)CN(Cc2ccccc2)S(=O)(=O)c2ccc(OC)c(C)c2)CC1	-5.1	i
Cc1cc(C)n2nc(SCC#N)nc2n1	-1.2	nt
CC(=O)Nc1ccc(-c2nn[nH]n2)cc1Cl	1.1	i
Cc1ccccc1N1C(=O)c2ccccc2C1Nc1cccnc1 (stereo unspecified)	-1.9	nt
CC(Oc1ccccc1Br)C(=O)N1CCc2ccccc21 (stereo unspecified)	-0.4	nt
COCCNC(=O)CS(=O)Cc1nc(-c2ccc(Cl)cc2)oc1C (stereo unspecified)	0.8	nt
O=C(NCc1ccco1)C(Cc1ccccc1)NS(=O)(=O)c1cccc2nsnc12 (stereo unspecified)	-1.1	nt
Cc1ccccc1S(=O)(=O)Cc1ccc(C(=O)NCCCN2CCN(C)CC2)o1	-0.7	nt
O=C(CCNS(=O)(=O)c1ccc2c(c1)CCC(=O)N2)NCc1ccc2c(c1)OCO2	1.8	nt
